# Assay outcomes deposited in PubChem by National Center for Advancing Translational Sciences (NCATS).
# StopGo FLuc: FMDV 2A StopGo reporter, firefly signal. HEK cells with a luciferase reporter of 2A StopGo recoding. Potency, µM (titrated, usually from 57.5 µM), inactives show top-dose signal change, negative = less light. hit rate 0.23% among 120,000. AID 1745856; active = well fitted falling curve with a large enough effect; inconclusive = small, poorly fitted or top-dose-only effect; inactive = no such curve, though single readings can be large or run the other way; further: nearly all actives have a fitted effect of over 60% in size; overnight with compound
# 2A Renilla: lowers the Renilla signal of an FMDV 2A StopGo reporter; HEK cells with a luciferase reporter of 2A StopGo recoding; Potency, µM (doses to about 57.5 µM), inactives show at the top dose signal change, negative = less light; hit rate 0.32% among 120,000; AID 1745857; active means well fitted falling curve with a large enough effect; inconclusive means small, poorly fitted or top-dose-only effect; inactive means no such curve, though single readings can be large or run the other way; further: nearly all actives have a fitted effect of over 55% in size; overnight with compound
# Numbers without * were called inactive; u = inconclusive; & = joins results of further samples; [ ] = another dose, or the depositor's remark. On the % scale 0 is the no-effect control and ±100 the full control effect; potency means the concentration at half of the fitted maximal effect.
SMILES,StopGo FLuc,2A Renilla
CCOc1ccc2nc(N3CCCC(C(=O)NCCCOC)C3)sc2c1 (stereo not given),3%,4%
O=S(=O)(c1ccc(F)cc1)N1CCC(Oc2cccc(C(F)(F)F)c2)CC1,-21%,15%
O=C(NCCc1ccccc1)c1cc(-c2ccc(Br)cc2)on1,-6%,-8%
Cc1ccc(NC(=O)CCc2ncc(-c3ccc(C)c(C)c3)o2)c(O)c1,0%,-16%
CC(Sc1n[nH]c(-c2cccs2)n1)C(=O)Nc1cc(C(F)(F)F)ccc1Cl (stereo not given),u,u
CSc1cccc(NC(=O)N2CCN(S(=O)(=O)c3ccc4c(ccn4C)c3)CC2)c1,12%,6%
N#C/C(=C/c1ccc(F)cc1)C(=O)c1c[nH]c2cc(F)ccc12,43%[activator],5%
CCOc1ccc(NS(=O)(=O)c2ccc3[nH]cc(C(=O)NCc4ccccc4)c(=O)c3c2)cc1,-12%,37%[activator]
CCCCN(C)C(=O)C1CCN(S(=O)(=O)c2c(C)noc2/C=C/c2ccccc2F)CC1,-6%,8%
O=C(Nc1ccon1)c1sc2cccc(F)c2c1Cl,196%[activator],11%
COc1cccc(NC(=O)CN(C)CC(=O)N(C)C2(C#N)CCC(C)CC2)c1 (stereo not given),11%,5%
Cc1ccc(-c2ccc(/C=C/C(=O)c3ccco3)o2)cc1,113%[activator],-3%

# Fetched by structure from the list above (5):
SMILES,StopGo FLuc,2A Renilla
O=S(=O)(c1ccc(F)cc1)N1CCC(Oc2cccc(C(F)(F)F)c2)CC1,-21%,15%
N#C/C(=C/c1ccc(F)cc1)C(=O)c1c[nH]c2cc(F)ccc12,43%[activator],5%
O=C(Nc1ccon1)c1sc2cccc(F)c2c1Cl,196%[activator],11%
COc1cccc(NC(=O)CN(C)CC(=O)N(C)C2(C#N)CCC(C)CC2)c1 (stereo not given),11%,5%
Cc1ccc(-c2ccc(/C=C/C(=O)c3ccco3)o2)cc1,113%[activator],-3%

# At a glance, part of the list above.
SMILES,StopGo FLuc,2A Renilla
O=S(=O)(c1ccc(F)cc1)N1CCC(Oc2cccc(C(F)(F)F)c2)CC1,-21%,15%
O=C(NCCc1ccccc1)c1cc(-c2ccc(Br)cc2)on1,-6%,-8%
Cc1ccc(NC(=O)CCc2ncc(-c3ccc(C)c(C)c3)o2)c(O)c1,0%,-16%
CC(Sc1n[nH]c(-c2cccs2)n1)C(=O)Nc1cc(C(F)(F)F)ccc1Cl (stereo not given),u,u

# Profiles as entered above.
# CC(Sc1n[nH]c(-c2cccs2)n1)C(=O)Nc1cc(C(F)(F)F)ccc1Cl (stereo not given) is listed as StopGo FLuc = u; 2A Renilla = u
# CCOc1ccc(NS(=O)(=O)c2ccc3[nH]cc(C(=O)NCc4ccccc4)c(=O)c3c2)cc1 is listed as StopGo FLuc = -12%; 2A Renilla = 37%[activator]

# (cont.)
SMILES,StopGo FLuc,2A Renilla
O=C(CC1C(=O)N(CCc2ccccc2)c2nc3ccccc3n21)Nc1ccc(F)c(F)c1 (stereo not given),u,u
CCOc1ccc(C(=O)N2CCN(Cc3cc(=O)n4nc(-c5cccc(OC)c5)sc4n3)CC2)cc1,0%,-19%
Cc1ccc2nc(N(CCCN(C)C)C(=O)c3ccco3)sc2c1,67%[activator],0%
COc1ccc2c(=O)c(-c3ccc(OC)c(OC)c3)c(C(F)(F)F)oc2c1,24%,-7%
Cc1cc(C(=O)NC(C)c2ccc(F)cc2F)c2cnn(C(C)C)c2n1 (stereo not given),2%,11%
O=C(c1cccc2ccccc12)N1CCC(c2nc3ccccc3o2)CC1,u,42%[activator]
COc1cc(-c2nc(SCC(=O)NC3CCCC3)c(-c3ccccc3)[nH]2)cc(OC)c1OC,158%[activator],122%[activator]
Cc1cncn1CCc1nc2c3ccccc3nc(SCC(=O)Nc3ccccc3F)n2n1,-23%,-21%
Cc1ccc(NC(=O)C(C)C)cc1Cl,11%,-6%
COCC(C)NC(=O)COCc1cc(-c2ccc3c(c2)OCO3)on1 (stereo not given),32%[activator],6%
CC(C)(C)c1ccc(C(=O)Nc2cc(F)ccc2F)cc1,159%[activator],4%
Cc1ccccc1C(=O)Nc1sc2c(c1C(=O)N1CCC(C)CC1)CCC(C)C2 (stereo not given),7%,168%[activator]
O=C(CSc1n[nH]c(-c2ccccc2)n1)c1ccccc1,0%,28%
N#Cc1cn(CC(=O)NCc2ccc(F)cc2)c2ccccc12,46%[activator],4%
N#Cc1nc(/C=C/c2ccc(F)cc2)oc1N1CCN(c2ccccc2)CC1,8%&-11%,-1%&5%
Cc1cccc(Nc2nnc(-c3ccc(C)c(S(=O)(=O)N4CCOCC4)c3)c3ccccc23)c1,15%,-12%
COc1ccc(-c2nnc(SC(C(=O)N3CCOCC3)c3ccccc3)n2C2CCCCC2)cc1 (stereo not given),-1%,43%[activator]
Cc1ccccc1C1CCCN1C(=O)c1cc(-c2cccs2)on1 (stereo not given),-13%,-30%
COC(=O)/C(C#N)=C\c1ccc(OCc2ccccc2Cl)c(OC)c1,180%[activator],-14%[1.06 µM]
COc1ccc(NC(=O)Cc2csc(COc3cccc(C)c3)n2)c(OC)c1,30%[activator],9%
O=C(Nc1cc(Cl)ccc1O)c1cc(-c2ccc3c(c2)OCO3)on1,142%[activator],-10%
O=S(=O)(Cc1ccc(F)cc1)Cc1nc2ccccc2s1,100%[activator],21%
Cc1ccc2c(c1)sc1nc(-c3cc4cc(Cl)ccc4oc3=O)cn12,-12%,2%
CS(=O)(=O)c1ccc(-c2csc(NC3CCCCC3)n2)cc1,0%,u
O=C(O)c1ccc(Br)o1,1%,-1%
CCOc1ccc2cc(-c3csc(Nc4ccc(F)cc4)n3)c(=O)oc2c1,47%[activator],3%
CCc1cc(C(=O)Nc2cnn(Cc3ccccc3C)c2)no1,195%&165%[activator],25%&-5%
CCC(C)NS(=O)(=O)c1ccc(N2CCCCS2(=O)=O)cc1 (stereo not given),10%,41%[activator]
COCCN(Cc1ccc(C)cc1)Cc1cc(=O)n2c3c(sc2n1)CCCC3,4%,5%
CCCC1Cc2c(sc3nc(SCc4ccccc4)nc(N)c23)CO1 (stereo not given),0%,-8%
COc1ccccc1NC(=O)C1=C(C)Nc2nc(SCc3ccccc3Cl)nn2C1c1ccncc1 (stereo not given),2%,-3%
CC(C)NC(=O)c1nn(-c2ccccc2)nc1CO,-9%,-24%
CC(=O)N1CCC2(CC1)OC(=O)C(C)=C2C(=O)NCCN1CCOCC1,-9%,-10%
Cc1ccc(C2C3=C(CCCC3=O)Nc3[nH]n(-c4ccccc4)c(=O)c32)cc1 (stereo not given),22%,38%[activator]
Cc1cc(S(=O)(=O)Nc2ccc(C(F)(F)F)cc2)sc1C(=O)O,6%,14%
O=C(O)c1ccc(S(=O)(=O)Nc2cc(F)ccc2OCC(F)(F)F)cc1,0%,-5%
NS(=O)(=O)c1cc2c(cc1Cl)NC(CSCc1ccccc1)=NS2(=O)=O,-13%,14%
Cc1c(-c2ccccc2)c(=O)oc2c(CN3CCN(C)CC3)c(O)ccc12,0%,-9%
Cc1ccccc1CNC(=O)CCCn1ncn2c(cc3occc32)c1=O,-13%,-6%
O=C(CSc1nnc2ccc(-c3ccco3)nn12)NC1CCCCC1,5%,-5%
CC(=O)N(C)c1ccc(NC(=O)Cn2c(C)cc3ccccc32)cc1,2%,-5%
CCCc1cc(=O)oc2cc(OC(C)C(=O)NCc3ccncc3)ccc12 (stereo not given),32%,25%
COc1ccc(C(=O)COC(=O)c2cc(Cl)ccc2Cl)c(OC)c1,64%[activator],11%
CN(C)C(=O)c1ccc(NC(=O)c2ccc(C#N)cc2)cc1,0%,23%
COC(=O)[C@H](CC(C)C)NC(=O)Nc1ccc(OC)c(Cl)c1,20%,-6%
Brc1ccc(-c2cn3cc(Cc4ccccc4)sc3n2)cc1,317%[activator],-1%
CC(NC(=O)c1cccs1)c1ccc2c(c1)NC(=O)CO2 (stereo not given),-6%,1%
Cc1ccc(Cn2c(Oc3ccc(F)cc3)nc3c2c(=O)n(C)c(=O)n3C)cc1,-1%,4%
Cc1cc(C)c(S(=O)(=O)N2CCCC2c2cc(C(C)C)on2)c(C)c1 (stereo not given),8%,28%
COc1ccc(Cl)cc1NC(=O)CN1C(=O)COc2ccc(S(=O)(=O)NC3CCCC3)cc21,-16%,101%[activator]
Cc1ccc(C)c(N2CCN(C(=O)C3CCN(c4nc5ccc(C)cc5[nH]4)CC3)CC2)c1,u,u
CN(CCO)C(=O)COc1cc(O)c2c(=O)cc(-c3ccccc3)oc2c1,72%[activator],16%
Fc1ccc(-c2nc(Nc3cccc(C(F)(F)F)c3)nc3c2COc2ccccc2-3)cc1,2%,-3%
COc1ccccc1N1CCN(C(=O)c2ccc3c(c2)N(Cc2cc(C)ccc2C)C(=O)c2ccccc2S3(=O)=O)CC1,1%,65%[activator]
O=C(Nc1ccc2c(c1)OCCO2)c1nn(-c2ccccc2)c(=O)c2ccccc12,13%,10%
CSc1cccc(NC(=O)c2cc(Br)ccc2Cl)c1,6%,3%
CC(C)C[C@H]1COc2cccc(F)c2S(=O)(=O)N1Cc1cn(Cc2ccc(Cl)cc2)nn1,-1%,0%
CCN(C(=O)C(=O)c1c[nH]c2ccccc12)c1cccc(Cl)c1,58%[activator],190%[activator]
Cc1ccccc1-n1nc(C)c2c1NC(=O)CSC2c1ccccc1C(F)(F)F (stereo not given),-9%,-10%
CCN(CC)S(=O)(=O)c1ccc2c(c1)N(CC(=O)N1CCN(c3cc(Cl)ccc3C)CC1)C(=O)CO2,-6%,-2%

# Single entries from the list.
# 2A Renilla with COc1ccccc1N1CCN(C(=O)c2ccc3c(c2)N(Cc2cc(C)ccc2C)C(=O)c2ccccc2S3(=O)=O)CC1 = 65%[activator]
# StopGo FLuc with Fc1ccc(-c2nc(Nc3cccc(C(F)(F)F)c3)nc3c2COc2ccccc2-3)cc1 = 2%
# 2A Renilla with CN(CCO)C(=O)COc1cc(O)c2c(=O)cc(-c3ccccc3)oc2c1 = 16%
# 2A Renilla with O=C(Nc1ccc2c(c1)OCCO2)c1nn(-c2ccccc2)c(=O)c2ccccc12 = 10%
# 2A Renilla with CC(C)C[C@H]1COc2cccc(F)c2S(=O)(=O)N1Cc1cn(Cc2ccc(Cl)cc2)nn1 = 0%

# Going on with the list:
SMILES,StopGo FLuc,2A Renilla
O=C(Cn1ccn2nc(-c3ccc(Cl)cc3)cc2c1=O)Nc1ccc(Br)cc1F,10%,-5%
Cc1cc(=O)oc2cc(OCC(=O)NCC3(N(C)C)CCCCCC3)ccc12,13%,1%
O=C(O)CC[n+]1ccc(-c2cc[n+](CCC(=O)O)cc2)cc1,0%,35%[activator]
Cc1nc2cc(NC(C)C(=O)Nc3ccc(C(C)(C)C)cc3)ccc2o1 (stereo not given),u,u
FC(F)(F)c1cccc(Nc2nc3nonc3nc2Nc2ccc(Cl)cc2)c1,u,u
C=CCNC(=O)NC(=O)CN(CC)c1cc(C)ccc1C,11%,-1%
COc1ccc(NC(=O)CCS(=O)(=O)c2ccc3c(c2)n(C)c(=O)c(=O)n3C)cc1Cl,0%,1%
S=C(NCCSc1ccc(Cl)cc1)Nc1ccccc1,22%,144%[activator]
Cc1ccc(NC(=O)CSC(C)C(=O)Nc2cc(C)on2)cc1 (stereo not given),130%[activator],6%
c1ccc(-n2ncc3c(Oc4cccnc4)ncnc32)cc1,162%[activator],-7%
CONC(=O)c1ccc(C(F)(F)F)nc1C,3%,-2%
CC1=C(C(=O)Nc2ccccc2)C(c2cccs2)n2nc(-c3ccccc3)nc2N1 (stereo not given),-18%,2%
CC(c1nc(C(C)(C)C)no1)N1CCN(c2oc(C3CC3)nc2C#N)CC1 (stereo not given),7%,12%
Cc1ccsc1CN(C(=O)c1cc(=O)c2cc(Cl)ccc2o1)C1CCS(=O)(=O)C1 (stereo not given),-3%,6%
CC(C)c1nc2ccc(C(=O)NC(C)c3ccccc3)cc2o1 (stereo not given),86%[activator],30%[activator]
O=C(COc1c(I)cc(Cl)c2cccnc12)N1CCC1,34%[activator],50%[activator]

# Only part of the results is shown; count on the stated rates, not on these rows.
